Assay outcomes from PubChem.
MARV entry inh = inhibitors of Marburg virus binding or cell entry | Marburg virus pseudotyped entry inhibition, cell reporter; control for the full effect not named in the record; about a third of the inactives were read at about 46 µM | Potency, µM (doses to about 37.8 µM), without a hit: top-dose activity change, negative = inhibition, actives largely listed as inhibitors | 300,000 compounds, 1.8% hits; active = well fitted inhibition curve with a large enough effect; inconclusive = small, poorly fitted or top-dose-only effect, or effect the other way; inactive = flat fitted curve, though single readings scatter; tested in HEK293 cells; about a fifth of its hits are not listed in these tables; also: % is scaled to controls: 0 for no effect and ±100 for the full control effect; luciferase read-out
Cruzain Triton = cruzain (T. cruzi) inhibition with detergent; P25779; purified cruzain, Z-FR-AMC fluorescence, 0.01% Triton; 200,000 compounds, 0.43% hits; Potency, µM, for inactives: max response, negative = inhibition, actives largely listed as inhibitors;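 also: plate controls were neutral wells for no effect and buffer without enzyme for full effect; nearly all actives have a fitted effect of over 40% in size; top concentration of the series not given in the record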
Target sequence (P25779 123-467 limits assumed): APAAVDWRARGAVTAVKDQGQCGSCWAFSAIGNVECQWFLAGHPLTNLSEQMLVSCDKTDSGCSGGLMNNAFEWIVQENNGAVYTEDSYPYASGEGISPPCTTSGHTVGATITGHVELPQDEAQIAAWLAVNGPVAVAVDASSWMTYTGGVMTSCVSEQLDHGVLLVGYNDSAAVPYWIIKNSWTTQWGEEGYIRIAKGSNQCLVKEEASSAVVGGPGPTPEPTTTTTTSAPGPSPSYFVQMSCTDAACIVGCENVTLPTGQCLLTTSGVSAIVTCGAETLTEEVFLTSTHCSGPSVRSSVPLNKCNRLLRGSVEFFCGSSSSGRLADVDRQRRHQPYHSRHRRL
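Detergent-containing run (0.01% Triton X-100) in acetate buffer pH 5.5 with 5 mM DTT: enzyme at 1.5 nM final, 15 min compound preincubation at room temperature, then 2 uM Z-FR-AMC substrate. Activity taken as 60 s fluorescence increase at 360/450 nm.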
Lassa entry inh = blocks Lassa virus binding to or entry into cells | 300,000 compounds, 1.2% hits | Potency, µM (highest dose often 37.9 µM), without a hit: top-dose activity change, negative = inhibition, actives largely listed as inhibitors | AID 540256 | Lassa virus pseudotype entry inhibition, cell reporter; control for the full effect not named in the record; active means well fitted inhibition curve with a large enough effect; inconclusive means small, poorly fitted or top-dose-only effect, or effect the other way; inactive means flat fitted curve, though single readings scatter; tested in HEK293 cells; also: % is scaled to controls: 0 for no effect and ±100 for the full control effect; nearly all actives have a fitted effect of over 50% in size; luciferase read-out
SARS PLP yeast = blocks SARS-CoV papain-like protease in a yeast assay. S. cerevisiae expressing SARS-CoV PLpro, growth rescue; control for the full effect not named in the record. Potency, µM (top dose mostly 32.9 µM), for the others: at the highest dose activity, positive = growth rescue. 330,000 compounds, 0.19% hits; active means well fitted rising curve with a large enough effect; inconclusive means small, poorly fitted or top-dose-only effect; inactive means no such curve, though single readings can be large or run the other way; also: 0% is about no effect; nearly all actives have a fitted effect of over 55% in size; growth read by luminescence after 48 h
NS1 function inh = blocks influenza NS1 protein function; Potency, µM (series often up to 46.1 µM), for inactives: at the top dose activity, positive = more growth; S. cerevisiae slowed by influenza A NS1, growth recovery by OD600; 270,000 compounds, 0.4% hits; active means well fitted rising curve with a large enough effect; inconclusive means small, poorly fitted or top-dose-only effect; inactive means no such curve, though single readings can be large or run the other way; also: nearly all actives have a fitted effect of over 50% in size
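A cell-based growth assay was used: compounds that relieve NS1-induced slow growth of budding yeast raise OD600. Assay medium was yeast nitrogen base with ammonium sulphate and -URA supplement, pH 6.0, with 2% galactose.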
Cruzain noTriton = cruzain (T. cruzi) inhibition without detergent; Potency, µM, for inactives: max response, negative = inhibition, hits mostly inhibitors; P25779; 200,000 compounds, 2.3% hits; purified cruzain, Z-FR-AMC fluorescence, no detergent;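 also: plate controls were enzyme without inhibitor for no effect and buffer without enzyme for full effect; nearly all actives have a fitted effect of over 40% in size; top concentration of the series not given in the record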
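Purified cruzain at 1.5 nM, pre-incubated 15 min with compound at room temperature in 100 mM sodium acetate pH 5.5, 5 mM DTT, 0.00005% Triton X-100. Reaction started with 2 uM Z-FR-AMC; AMC fluorescence increase over 60 s gives rate.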
2A StopGo = lowers the luciferase signal of an FMDV 2A StopGo reporter | human cells with a luciferase reporter of 2A StopGo recoding; control for the full effect not named in the record | Potency, µM (top dose mostly 57.9 µM), for the others: at the top dose signal change, negative = less light | 410,000 compounds, 1.2% hits | AID 1159524; active = well fitted falling curve with a large enough effect; inconclusive = small, poorly fitted or top-dose-only effect; inactive = no such curve, though single readings can be large or run the other way; tested in HEK293T cells; also: % is scaled to controls: 0 for no effect and ±100 for the full control effect; nearly all actives have a fitted effect of over 45% in size; luciferase light after 4 h
RE007 growth inh = less growth of the S. pombe RE007 Vpr strain | 360,000 compounds, 0.21% hits | S. pombe RE007 Vpr strain, BacTiter-Glo ATP luminescence, 24 h; control for the full effect not named in the record | Potency, µM (series often up to 92.2 µM), inactives show at the top dose activity change, negative = less growth; active = well fitted falling curve with a large enough effect; inconclusive = small, poorly fitted or top-dose-only effect; inactive = no such curve, though single readings can be large or run the other way;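 also: % is scaled to controls: 0 for no effect and ±100 for the full control effect; nearly all actives have a fitted effect of over 50% in size; the assay follows cell death caused by Vpr and the record does not say whether a fall means rescue or toxicity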
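Fission yeast RE007 carrying one integrated HIV-1 vpr copy, seeded at OD 0.01 in PMG+AL medium with 23 nL pinned compound. Grown 24 h at 30 degrees; viability read by BacTiter-Glo luminescence after 5 min.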
Starred values were filed as active, the others as inactive; ? = inconclusive; · = not tested or not shown; & = joins results of further samples; [ ] = another dose, or the depositor's remark. Unless noted, calls follow the shape of the dose curve; as a rule, active = well fitted curve in the direction sought with a large enough effect; inconclusive = small, poorly fitted or top-dose-only effect, or another doubt; inactive = no such curve, though single readings can be large; an effect the other way counts as inactive or inconclusive. Potency is read from the fitted curve at half-maximal effect. Compounds as they come, and some 4.6% of all compounds hit somewhere here.

SMILES	MARV entry inh	Cruzain Triton	Lassa entry inh	SARS PLP yeast	NS1 function inh	Cruzain noTriton	2A StopGo	RE007 growth inh
Cc1ccc(NC2CCCCC2NS(=O)(=O)c2ccc(Cl)cc2)cc1 (stereo not given)	11.8%	-5.5%	-13.9%	-7.6%	3.0%	5.3%	-3.9%	-4.5%
COc1ccc2c(c1)C(=O)N(c1ccccc1)C(=O)C2	?	1.0%	-5.9%	5.3%	?	-17.9%	-0.7%	28.8%
Cc1cccc(NC(=S)NCC2CCCO2)c1 (stereo not given)	?	2.1%	-8.5%	?	3.2%	-5.7%	33.1%[activator]	10.5%
CC(=O)N1N=C(c2cccc([N+](=O)[O-])c2)OC1c1ccc(Br)cc1 (stereo not given)	·	·	·	-0.3%	-4.3%	·	9.5%	13.4%
O=C(c1ccc2c(c1)CCN2S(=O)(=O)c1ccccc1)N1CCN(c2ccccc2)CC1	11.1%[46.1 µM]	·	?	0.5%	12.2%	·	9.3%	12.2%
Cn1c(=O)n(Cc2ccccc2)c2ccccc21	10.4%	2.9%	1.8%	3.0%	-2.3%	2.7%	·	18.0%
COc1cc(OC)c(NC2c3ccccc3C(=O)N2c2cc(C)ccn2)cc1Cl (stereo not given)	·	-7.7%	·	8.6%	-45.4%	-6.2%	-24.6%	0.7%
COc1cc2c(C#N)c(N3CCN(C)CC3)nc(N)c2c(N)n1	-0.8%	-14.6%	·	0.2%	-7.0%	3.4%	·	·
CC1(C)CC(O)C(C(O)c2cccc([N+](=O)[O-])c2)C(C)(C)N1 (stereo not given)	?	-3.4%	10.6%	6.8%	12.0%	-5.1%	-20.2%	-3.5%
CSc1nnc(CNC(=O)C23CC4CC(CC(C4)C2)C3)n1Cc1ccccc1	-40.1%	-5.0%	-1.7%	27.8%	-10.4%	14.0%	-6.5%	16.0%
CCOc1cc(C2C(C(=O)Nc3ccc(OC)cc3)=C(C)Nc3nc(SC)nn32)ccc1O (stereo not given)	?	-2.4%	?	·	·	-1.9%	-7.2%	·
CCCCOc1ccc(C(NC(=O)OCC)NC(=O)OCC)cc1	0.4%	2.9%	-15.2%	-7.4%	-16.8%	-15.1%	3.9%	3.6%
COc1cc2nc(CN3CCC(Cc4ccccc4)CC3)[nH]c(=O)c2cc1OC	-4.3%	·	21.0%	-1.2%	·	·	-29.9%	-4.3%
COc1cc(NC(=O)c2noc3c2CSc2ccccc2-3)cc(OC)c1OC	2.0%[46.1 µM]	-2.2%	9.3%[46.1 µM]	·	·	1.7%	-24.0%	·
C=CCN1C=C/C(=C\C=C(C#N)C#N)c2ccccc21	-22.3%[46.1 µM]	-4.3%	-14.5%	-29.8%	6.3%	7.9%	-22.4%	-16.5%
O=C1CN(CC(=O)NC(=O)NCc2ccccc2)CCN1	-19.9%	2.4%	13.1%	10.3%	11.6%	-7.4%	-13.7%	-1.0%
CN(C)C(=O)c1c(C(F)(F)F)nn(C)c1Cl	0.0%[46.1 µM]	·	-0.4%	0.6%	·	·	-3.7%	-1.1%
CC(CCc1ccccc1)NC(=O)CSc1n[nH]c(-c2ccccc2Cl)n1 (stereo not given)	·	-0.4%	-7.2%[46.1 µM]	·	·	-0.9%	?	·
CC1Cc2cc(S(=O)(=O)CCC(=O)Nc3cccc(F)c3)ccc2N1C(=O)C1CC1 (stereo not given)	·	-0.7%	-16.0%[46.1 µM]	·	·	-10.2%	-22.9%	·
CCOC(=O)c1ccccc1OC(=O)NNc1ccccc1	?	·	?	·	·	·	10.5%	158.3%
COc1ccccc1CCNC(=O)C1CCC(=O)N(C2CCCCCC2)C1 (stereo not given)	?	·	24.0%	-2.5%	-19.4%	·	-19.0%	-8.0%
CC(C)[C@H](NC(N)=O)C(=O)Nc1cccc([N+](=O)[O-])c1	14.5%[46.1 µM]	·	-5.7%	-1.5%	·	·	-10.1%	-2.4%
CCN(CC)CCNC(=O)c1ccc(Cl)c(S(=O)(=O)N2CCCCCC2)c1	?	0.3%	5.3%	-3.6%	-3.5%	-23.0%	-27.4%	5.6%
COc1ccc(-c2c[n+]3c4n2CCCCC4=C(c2ccc(Br)cc2)C3)cc1	?	-25.7%	-85.0%	-6.4%	3.3%	10µM*	-6.9%	3.2%
Cc1nn(CC(=O)NCCCN2CCOCC2)c(C)c1[N+](=O)[O-]	?	-2.9%	7.3%	-5.8%	10.6%	-3.2%	2.2%	12.5%
COc1cc(C(=O)OCC(=O)NCc2ccc(F)cc2)ccc1OCC(C)C	-22.5%	·	?	1.0%	0.0%	·	-15.6%	-2.3%
C/C=C\C=C/C(=O)Nc1cccc(C2=NOC3(C2)C[C@@H](C(N)=O)N(C(=O)COc2ccc(Cl)cc2)C3)c1 (stereo not given in full)	·	·	·	3.5%	3.1%	·	0.0%	-12.1%
Cc1ccc2[nH]c3c(N4CCN(Cc5ccc6c(c5)OCO6)CC4)ncnc3c2c1	0.5%	-10.7%	·	2.8%	-6.6%	3.8%	·	·
CCOC(=O)C1=C(N)n2c(s/c(=C\c3ccco3)c2=O)=C(C(=O)OCC)C1c1ccco1 (stereo not given)	-18.2%	-5.5%	?	-5.5%	?	7.94µM*	4.4%	-9.3%
COc1cnn(-c2ccc(C)cc2)c(=O)c1Br	?	·	5.1%[46.1 µM]	3.7%	·	·	35.0%[activator]	28.0%

Reprinted at random: three records from the list.
SMILES	MARV entry inh	Cruzain Triton	Lassa entry inh	SARS PLP yeast	NS1 function inh	Cruzain noTriton	2A StopGo	RE007 growth inh
CCN(CC)CCNC(=O)c1ccc(Cl)c(S(=O)(=O)N2CCCCCC2)c1	?	0.3%	5.3%	-3.6%	-3.5%	-23.0%	-27.4%	5.6%
COc1cnn(-c2ccc(C)cc2)c(=O)c1Br	?	·	5.1%[46.1 µM]	3.7%	·	·	35.0%[activator]	28.0%
COc1ccc(-c2c[n+]3c4n2CCCCC4=C(c2ccc(Br)cc2)C3)cc1	?	-25.7%	-85.0%	-6.4%	3.3%	10µM*	-6.9%	3.2%

The listing continues.
SMILES	MARV entry inh	Cruzain Triton	Lassa entry inh	SARS PLP yeast	NS1 function inh	Cruzain noTriton	2A StopGo	RE007 growth inh
CC(C)CN(C(=O)COC(=O)c1nc(Cl)ccc1Cl)c1c(N)n(Cc2ccccc2)c(=O)[nH]c1=O	18.2%	·	-4.3%	26.5%	5.5%	·	-7.8%	3.7%
CCOc1cccc(CN2CCCC(N3CCN(c4cccc(Cl)c4)CC3)C2)c1O (stereo not given)	?	·	-0.5%[46.1 µM]	?	8.5%	·	-24.2%	6.0%
O=C(NC(c1ccccc1)c1ccccc1)N1CCN(CCO)CC1	-2.8%	2.8%	1.8%	-4.3%	-0.4%	-2.9%	-20.8%	3.0%
Cc1c(N2C(=O)CS/C2=N\N=C\c2ccc(Cl)cc2)c(=O)n(-c2ccccc2)n1C	3.3%	0.3%	23.0%[14.3 µM]	-0.4%	10.0%	3.5%	1.9%	-4.8%
CCCN(Cc1cc2cc(C)ccc2[nH]c1=O)C(=O)c1cccc(Cl)c1	10.4%[46.1 µM]	-2.1%	?	·	·	-5.4%	-29.9%	·
CS(=O)(=O)N(CC(=O)Nc1ccccc1C(=O)N1CCOCC1)c1cccc(F)c1	6.2%	·	7.6%	-0.3%	10.4%	·	-17.7%	3.8%
COC(=O)c1cc2oc3ccccc3c2n1Cc1ccc(C)cc1	-6.8%[46.1 µM]	-1.1%	·	·	·	5.2%	-4.6%	·
O=C(CC1C(=O)NCCN1Cc1ccc(Cl)c(F)c1)NCC1CCOCC1 (stereo not given)	·	·	·	-0.9%	-5.3%	·	-11.7%	3.5%
Nc1ccc(S(=O)(=O)N2CCCc3ccccc32)cc1	0.0%	-0.6%	·	6.1%	-39.6%	-10.3%	-5.5%	-4.5%
COc1cc2c(cc1OC)[C@H](Cc1ccc(O)cc1)NCC2	-14.0%	0.2%	5.1%	5.7%	27.6%	-1.2%	0.0%	2.4%
Cc1c(NC(=O)C2(C)CCCCC2)c(=O)n(-c2ccccc2)n1C	-6.1%	5.3%	-0.7%	-0.1%	5.6%	-0.1%	-17.7%	-9.7%
CCn1c(SCC(=O)O)nc2sc3c(c2c1=O)CCC3	-3.1%&-3.1%	-2.0%	14.4%	14.3%	-14.5%	-4.7%	6.1%	-22.7%
COc1ccccc1N1CCN(C(=O)NC23CC4CC(CC(C4)C2)C3)CC1	·	·	·	-1.0%	-6.4%	·	-15.2%	1.5%
Cc1cc(NC(=O)CCOc2ccc(F)cc2)no1	?	·	?	-0.8%	-0.2%	·	-10.4%	5.4%
Fc1cccc(NC(=S)NCc2ccccn2)c1	2.0%	-2.4%	15.6%	-9.4%	6.2%	-11.0%	83.7%[activator]	1.4%
COc1ccc(OC)c(C(=O)N2CCC(CCC(=O)NC3CC3)CC2)c1	?	·	9.3%[46.1 µM]	1.2%	-0.5%	·	5.5%	19.4%
COC(=O)C1=C(C)Nc2ncnn2C1c1ccc(OCc2ccccc2)cc1 (stereo not given)	14.8%	2.2%	7.9%	-0.6%	-51.0%	?	-23.5%	-10.6%
Cc1ccc(-n2ncc3c(N4CCC(Cc5ccccc5)CC4)ncnc32)cc1C	·	0.0%	11.9%[46.1 µM]	·	·	13.3%	-26.5%	·

Four structures already listed, sorted by molar mass, rising:
SMILES	MARV entry inh	Cruzain Triton	Lassa entry inh	SARS PLP yeast	NS1 function inh	Cruzain noTriton	2A StopGo	RE007 growth inh
Cc1cc(NC(=O)CCOc2ccc(F)cc2)no1	?	·	?	-0.8%	-0.2%	·	-10.4%	5.4%
Cc1c(NC(=O)C2(C)CCCCC2)c(=O)n(-c2ccccc2)n1C	-6.1%	5.3%	-0.7%	-0.1%	5.6%	-0.1%	-17.7%	-9.7%
COc1ccccc1N1CCN(C(=O)NC23CC4CC(CC(C4)C2)C3)CC1	·	·	·	-1.0%	-6.4%	·	-15.2%	1.5%
Cc1c(N2C(=O)CS/C2=N\N=C\c2ccc(Cl)cc2)c(=O)n(-c2ccccc2)n1C	3.3%	0.3%	23.0%[14.3 µM]	-0.4%	10.0%	3.5%	1.9%	-4.8%
